SARS PLP yeast = qHTS of Yeast-based Assay for SARS-CoV PLP; actives 0.19% (n = 330,000); Potency, µM (highest dose often 32.9 µM), for inactives: at the top dose activity, positive = growth rescue; AID 485353, 2010; S. cerevisiae expressing SARS-CoV PLpro, growth rescue; control for the full effect not named in the record; note: 0% is about no effect; nearly all actives have a fitted effect of over 55% in size; growth read by luminescence after 48 h
NS1 function inh = qHTS Assay for Inhibitors of Influenza NS1 Protein Function. actives 0.4% (n = 270,000). S. cerevisiae slowed by influenza A NS1, growth recovery by OD600. Potency, µM (series often up to 46.1 µM), for inactives: at the highest dose activity, positive = more growth; note: actives are rising curves; nearly all actives have a fitted effect of over 50% in size
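Read-out: OD600 growth recovery of NS1-expressing budding yeast. Cells grown overnight at 30C in -URA glucose medium, washed, resuspended and diluted 1:100 in 2% galactose assay medium, pH 6.0. Same strain lacking NS1 served as positive control.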
Marburg entry inh = qHTS for inhibitors of binding or entry into cells for Marburg Virus. Potency, µM (series often up to 37.8 µM), inactives show top-dose activity change, negative = inhibition, most hits filed as inhibitors. Marburg virus pseudotyped entry inhibition, cell reporter; control for the full effect not named in the record; about a third of the inactives were read at about 46 µM. actives 1.8% (n = 300,000); active = well fitted inhibition curve with a large enough effect; inconclusive = small, poorly fitted or top-dose-only effect, or effect the other way; inactive = flat fitted curve, though single readings scatter; tested in HEK293 cells; about a fifth of its hits are not listed in these tables; note: % is set by controls: 0 for no effect and ±100 for the full control effect; luciferase read-out
Cruzain inh noDet = qHTS Assay for Promiscuous and Specific Inhibitors of Cruzain (without detergent); Cruzipain (Trypanosoma cruzi), P25779; purified cruzain, Z-FR-AMC fluorescence, no detergent; Potency, µM, for the others: max response, negative = inhibition, most hits filed as inhibitors; actives 2.3% (n = 200,000); active = well fitted curve in the direction sought with a large enough effect; inconclusive = small, poorly fitted or top-dose-only effect, or another doubt; inactive = no such curve, though single readings can be large; an effect the other way counts as inactive or inconclusive;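 note: plate controls were enzyme without inhibitor for no effect and buffer without enzyme for full effect; nearly all actives have a fitted effect of over 40% in size; top concentration of the series not given in the record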
Target sequence (P25779 123-467 limits assumed): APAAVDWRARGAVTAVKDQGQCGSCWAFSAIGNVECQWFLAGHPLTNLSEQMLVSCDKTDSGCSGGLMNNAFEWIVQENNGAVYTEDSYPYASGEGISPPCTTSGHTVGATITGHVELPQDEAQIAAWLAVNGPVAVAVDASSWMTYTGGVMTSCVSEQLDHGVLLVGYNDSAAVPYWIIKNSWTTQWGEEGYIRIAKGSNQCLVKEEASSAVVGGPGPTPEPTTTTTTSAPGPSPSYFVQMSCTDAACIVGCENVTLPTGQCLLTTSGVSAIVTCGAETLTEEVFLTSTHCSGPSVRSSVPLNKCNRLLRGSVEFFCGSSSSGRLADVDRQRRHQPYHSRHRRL
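Detergent-free condition (0.00005% Triton X-100) in acetate buffer pH 5.5 with DTT. 1.5 nM enzyme and compound were pre-mixed 15 min, then 2 uM Z-FR-AMC substrate added; reaction progress from fluorescence change between first and third reads (60 s).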
StopGo reporter = High Throughput Screening for Foot and Mouth Disease Virus Antivirals; human cells with a luciferase reporter of 2A StopGo recoding; control for the full effect not named in the record; Potency, µM (titrated, usually from 57.9 µM), inactives show top-dose signal change, negative = less light; actives 1.2% (n = 410,000); AID 1159524, 2015; active = well fitted falling curve with a large enough effect; inconclusive = small, poorly fitted or top-dose-only effect; inactive = no such curve, though single readings can be large or run the other way; tested in HEK293T cells; note: % is set by controls: 0 for no effect and ±100 for the full control effect; nearly all actives have a fitted effect of over 45% in size; luciferase light after 4 h
LASV entry inh = qHTS for Inhibitors of binding or entry into cells for Lassa Virus. Lassa virus pseudotype entry inhibition, cell reporter; control for the full effect not named in the record. Potency, µM (series often up to 37.9 µM), for the others: at the top dose activity change, negative = inhibition, hits mostly inhibitors. actives 1.2% (n = 300,000). AID 540256, 2011; active means well fitted inhibition curve with a large enough effect; inconclusive means small, poorly fitted or top-dose-only effect, or effect the other way; inactive means flat fitted curve, though single readings scatter; tested in HEK293 cells; note: % is set by controls: 0 for no effect and ±100 for the full control effect; nearly all actives have a fitted effect of over 50% in size; luciferase read-out
RE007 growth inh = qHTS Assay for Inhibitors of the HIV-1 protein Vpr. S. pombe RE007 Vpr strain, BacTiter-Glo ATP luminescence, 24 h; control for the full effect not named in the record. Potency, µM (highest dose often 92.2 µM), for the others: at the highest dose activity change, negative = less growth. actives 0.21% (n = 360,000); active = well fitted falling curve with a large enough effect; inconclusive = small, poorly fitted or top-dose-only effect; inactive = no such curve, though single readings can be large or run the other way;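 note: % is set by controls: 0 for no effect and ±100 for the full control effect; nearly all actives have a fitted effect of over 50% in size; the assay follows cell death caused by Vpr and the record does not say whether a fall means rescue or toxicity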
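Fission yeast strain RE007, carrying one chromosomally integrated HIV-1 vpr copy, was seeded at OD 0.01 in PMG+AL medium with 23 nL pinned compound. After 24 h at 30 °C and 99% humidity, viability was read by BacTiter-Glo luminescence.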
Cruzain Triton = qHTS Assay for Promiscuous and Specific Inhibitors of Cruzain (with detergent) | Cruzipain (Trypanosoma cruzi), P25779 | purified cruzain, Z-FR-AMC fluorescence, 0.01% Triton | Potency, µM, for inactives: max response, negative = inhibition, usual class: inhibitors | actives 0.43% (n = 200,000); active = well fitted curve in the direction sought with a large enough effect; inconclusive = small, poorly fitted or top-dose-only effect, or another doubt; inactive = no such curve, though single readings can be large; an effect the other way counts as inactive or inconclusive;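 note: plate controls were neutral wells for no effect and buffer without enzyme for full effect; nearly all actives have a fitted effect of over 40% in size; top concentration of the series not given in the record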
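Read-out: AMC fluorescence (360 nm excitation, 450 nm emission), four reads over 2 min, first-to-third difference used. Conditions: cruzain 1.5 nM, Z-FR-AMC 2 uM, pH 5.5 acetate, 5 mM DTT, 0.01% Triton X-100.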
Starred values were filed as active, the others as inactive; ? = inconclusive; . = no result given; & = joins results of further samples; [ ] = another dose, or the depositor's remark. Unless noted, calls come from the whole dose curve; as a rule, active means well fitted rising curve with a large enough effect; inconclusive means small, poorly fitted or top-dose-only effect; inactive means no such curve, though single readings can be large or run the other way. Potency is the fitted concentration of half-maximal effect.

SMILES	SARS PLP yeast	NS1 function inh	Marburg entry inh	Cruzain inh noDet	StopGo reporter	LASV entry inh	RE007 growth inh	Cruzain Triton
COc1ccc(-n2ccnc2SCC(=O)NC2CCCC2)c(OC)c1	3%	-2%	4%	.	-19%	33%	-3%	.
CCN1CCN(c2nc(NCCO)c3ccccc3n2)CC1	-5%	-3%	.	.	0%	.	-7%	.
Cc1ccnc(N2CCCC(C(=O)NC3CC3)C2)n1 (stereo not given)	0%	11%	-4%[46.1 µM]	.	3%	1%[46.1 µM]	2%	.
Cc1cc([N+](=O)[O-])nn1CC(=O)Nc1ccc(Cc2ccncc2)cc1	15%	0%	-2%	8%	-15%	-28%	-12%	-1.6%
COc1ccc(NC(=O)Nc2cccnc2)c(OC)c1	1%	3%	25%[46.1 µM]	.	-6%	26%[46.1 µM]	0%	.
C=CCc1cc(Cl)ccc1OCCNCCCOC	-32%	-6%	?	-10%	-14%	-21%	-9%	-0.7%
CCNC(=S)N1CCN(CCN2C(=O)c3cccc4cccc(c34)C2=O)CC1	7%	12%	-16%[46.1 µM]	.	-11%	?	-14%	.
O=C(COC(=O)c1cccc(Cl)c1Cl)NC1CCCC1	2%	-1%	?	.	29%	3%	16%	.
CCOc1ccccc1Nc1cc(C)c2cccc(C)c2n1	-5%	0%	?	.	-15%	-11%[46.1 µM]	-19%	.
CN(C)CCCNc1ncnc2c1c(-c1ccccc1)cn2-c1ccccc1	2%	-20%	.	.	-22%	.	0%	.
COc1ccc(N(Cc2cc3ccccc3[nH]c2=O)S(=O)(=O)c2ccc(OC)cc2)cc1	4%	4%	.	.	-29%	.	-9%	.
Cc1cccnc1NC(=O)c1ccc(S(=O)(=O)NCc2ccco2)cc1	23%	.	-9%[46.1 µM]	.	-2%	7%	3%	.
Cc1sc2nc(CSc3ccccc3)nc(NCCN(C)C)c2c1C	21%	-2%	?	7%	-25%	?	5%	3.2%
CCC(=O)N1c2ccccc2NC2=C(C(=O)CC(c3ccco3)C2)C1c1ccco1 (stereo not given)	?	-32%	-6%[46.1 µM]	10%	14%	-3%	-13%	-4.4%
COc1ccccc1N1CCN(C(=O)C(=O)N/N=C/c2cccc(O)c2)CC1	-1%	-5%	16%	2%	50%[activator]	0%	0%	5.6%
CCn1ncc(CN2CCC(Oc3cc(C(=O)NC4CC4)ccc3OC)CC2)c1C	-2%	7%	-3%	.	7%	-2%	7%	.
COc1ccc(-c2cc(C(=O)Nc3ccc(C#N)cc3)no2)cc1	.	.	-14%[46.1 µM]	-4%	20%	0%[46.1 µM]	.	-0.6%
O=C(Cn1c(NCCO)nc2ccccc21)NCC1CCCO1 (stereo not given)	-6%	.	12%[46.1 µM]	.	-2%	.	-7%	.
Cc1ccccc1CC1SC(N)=NC1=O (stereo not given)	3%	-10%	-3%	.	-10%	?	-7%	.
O=C(c1ccc2ccccc2c1)N1CCOCC1	2%	.	?	.	17%	6%	-11%	.
Cc1cc(C)n2c(SCC(=O)Nc3ccc(F)cc3)nnc2n1	0%	0%	.	.	-3%	.	7%	.
CCN(CC)S(=O)(=O)c1cc(C(=O)Nc2cc(Cl)ccc2N2CCN(C)CC2)ccc1Cl	-2%	2%	0%	6%	7%	-3%	7%[3.69 µM]	-0.4%
COc1ccc(CCC(=O)OCC(=O)NCc2ccccc2)cc1	7%	.	?	.	-13%	-3%	-16%	.
Cc1c(NC(=O)Cc2ccc(Cl)cc2)cccc1-c1nc2cccnc2s1	.	.	.	11%	0%	13%[46.1 µM]	.	-3.5%
COc1ccc(S(=O)(=O)N2CCOCC2)cc1NC(=O)CN1CCN(C)CC1	.	.	2%[46.1 µM]	.	-13%	29%	-2%	.

Following part
SMILES	SARS PLP yeast	NS1 function inh	Marburg entry inh	Cruzain inh noDet	StopGo reporter	LASV entry inh	RE007 growth inh	Cruzain Triton
Cc1cc(C(=O)CSc2nnc(-c3ccccc3)n2Cc2ccc3c(c2)OCO3)c(C)n1C	3%	6%	19%&19%	-11%	3%	14%	-5%	-4.4%
N#CC1=C(N)N(c2ccccc2Sc2ccccc2)C(=O)C1	15%	21%	-6%	-17%	6%	1%	7%	-5.3%
O=C(NC1CCCCC1)C(c1ccc(F)cc1)N(CCCN1CCOCC1)C(=O)c1ccc(CN2CCOCC2)o1 (stereo not given)	0%	19%	-6%	.	1%	-5%	-14%	.
CC(=O)c1ccc(N2CCN(C(=O)CCCn3c(=O)[nH]c4ccsc4c3=O)CC2)cc1	-7%	8%	-2%&26%[46.1 µM]	-16%	-1%&-4%	?	10%	-4.6%
CCc1ccc(Nc2cnn(C34CC5CC(CC(CC(=O)O)(C5)C3)C4)c(=O)c2Cl)cc1	0%	.	6%[46.1 µM]	.	-15%	-4%	-6%	.
COc1ccc(N(CC(=O)N/N=C/c2ccc(OC)cc2OC)S(=O)(=O)c2ccccc2)cc1	-1%	0%	-20%[46.1 µM]	.	3%	23%[46.1 µM]	-7%	.
CNc1ncnc2c1ncn2-c1ccccc1	.	.	1%	.	10%	3%	-19%	.
Cc1cc(C)c(/C=C/c2onc(C)c2S(=O)(=O)N2CCC(C(=O)N3CCN(c4ccccc4)CC3)CC2)c(C)c1	.	.	.	-5%	-5%	?	.	-4.4%
Cc1ccccc1NC(=O)COC(=O)CNC(=O)c1sc2ccccc2c1Cl	13%	-6%	15%	3.2µM*	-12%	5%	-13%	7.9µM*
O=C(CCC(=O)Nc1ccc(Cl)cc1Cl)NNC(=O)[C@@H]1CCCC[C@@H]1C(=O)O	8%	22%	?	8%	-23%	-26%	9%	-0.4%
Cc1cc(C)c(OCC(O)CN2CCN(c3ccccn3)CC2)c(C)c1 (stereo not given)	0%	5%	.	.	-16%	.	8%	.
O=Cc1cccc(Oc2ncccn2)c1	3%	.	1%[46.1 µM]	.	1%	-1%[46.1 µM]	2%	.
O=C(CN(CC1CCCO1)C(=O)CNS(=O)(=O)c1ccc(F)cc1)NC1CCCCC1 (stereo not given)	-5%	0%	3%[46.1 µM]	.	19%	5%	-8%	.
O=C(c1ccc(S(=O)(=O)Nc2ccccc2F)cc1)N1CCCC1	-1%	.	12%[46.1 µM]	.	-13%	-11%	-18%	.
COc1ccc(-n2nc(C(=O)NCC(=O)N3CCN(c4ccccn4)CC3)c3ccccc3c2=O)cc1	6%	-17%	?	-2%	24%	9%	-10%	-4.1%
CCOc1nc(-c2ccc(C)cc2)ccc1-c1noc(-c2cccnc2)n1	5%	7%	-4%	-28%	.	.	.	1.6%
CC(=O)Nc1cccc(NC(=O)c2sc3ncn(CC(=O)N4CCCCC4)c(=O)c3c2C)c1	1%	-9%	-6%&-6%	26%	0%	2%	9%	-3.6%
O=C(OCC(=O)N1CCOCC1)c1ccc(O)cc1	-1%	2%	?	.	6%	7%[46.1 µM]	-15%	.
CN1CCN(C(=S)c2cn(CCOc3ccccc3)c3ccccc23)CC1	-2%	.	16%	.	8%	20%	16%	.
CCC(=O)N1CCc2cc(CNS(=O)(=O)c3ccc(Br)s3)ccc21	.	.	.	-3%	3%	1%[46.1 µM]	.	-0.8%
NNC(=O)c1ccc(Cl)cc1Cl	-28%	7%	5%	-11%	-23%	-2%	-4%	1.2%
Cn1c(O)c(C=NCCN2CCN(C(=O)c3ccccc3)CC2)c(=O)n(C)c1=O	4%	3%	-1%	-11%	-14%	-8%	-9%	1.7%
Cc1ccc(C(=O)NC(=S)Nc2ccc(N3CCOCC3)cc2)cc1	-1%	-2%	-7%[46.1 µM]	.	-18%	6%[46.1 µM]	-16%	.
Cc1nc(SCC(N)=O)[nH]c(=O)c1Cc1ccc(OC(C)C)cc1	-2%	6%	-4%&-4%	-6%	-13%	-17%	-8%	3.3%
COc1ccc(/C=C2\N=C3CCCN3C2=O)cc1	0%	4%	.	.	-1%	.	-10%	.

(cont.)
SMILES	SARS PLP yeast	NS1 function inh	Marburg entry inh	Cruzain inh noDet	StopGo reporter	LASV entry inh	RE007 growth inh	Cruzain Triton
Cc1cc(C)c(S(C)(=O)=O)c(NN)n1	0%	.	-11%[46.1 µM]	.	7%	14%[46.1 µM]	-9%	.
O=C(Cn1cnc2ccccc21)N/N=C/c1ccc([N+](=O)[O-])cc1	5%	5%	22%[46.1 µM]	-1%	?	16%	-10%	-9.2%
Cn1nc(C(F)(F)F)c(-c2ccc(F)cc2)c1NC(=O)CSCC(=O)O	2%	5%	-10%	.	-23%	2%	-1%	.
NC(=S)c1c(Cl)cc(C(F)(F)F)cc1Cl	0%	1%	?	.	-6%	?	17%	.
COc1ccc(-n2nc(C(=O)NCC(=O)NC3CCCCCC3)c3ccccc3c2=O)c(OC)c1	2%	-10%	14%[46.1 µM]	.	13%	-19%[46.1 µM]	-24%	.
CCOC(=O)C1CCC(=O)C1 (stereo not given)	.	.	18%[46.1 µM]	.	3%	0%[46.1 µM]	9%	.
CCC(C)(C)n1nnnc1C(c1cc2cc(C)cc(C)c2[nH]c1=O)N1CCCC1 (stereo not given)	-2%	?	?	-7%	18%	4%	18%	6.1%
COc1cc2c(c(OC)c1)C(c1cccc(OC)c1OC)CC(=O)N2 (stereo not given)	2%	-8%	.	0%	-7%	.	-11%	-5.0%
CCc1ccc(C(=O)c2cncc(Br)c2)cc1	.	6%	?	-7%	-3%	5%	-10%	1.4%
CCOc1ccc(CCNC(=O)c2cccc(S(=O)(=O)N3CCCC3)c2)cc1OCC	2%	.	?	.	-19%	-19%	16%	.
O=C(Nc1cccc(Cl)c1)NC1(C(=O)NCc2cccs2)CCCCC1	4%	-6%	-15%	-12%	.	-29%	-13%	8.5%
Cc1ccc(S(=O)(=O)Cc2cn3cccnc3n2)cc1	0%	-6%	4%	27%	-21%	2%	19%	-12%
COc1ccc(N(C)S(=O)(=O)c2cccc(C(=O)OCC(=O)Nc3sc4c(c3C#N)CCCCC4)c2)cc1	-11%	9%	16%&19%	13µM*	0%	13%&-2%	.	0.8%

From PubChem
